Screening results: PubChem BioAssay, National Center for Advancing Translational Sciences (NCATS)
Pol iota inh: qHTS for Inhibitors of Polymerase Iota | DNA polymerase iota (Homo sapiens), Q9UNA4 | Pol iota fluorescent replication assay, 10 min | Potency, µM (highest dose often 115 µM), without a hit: top-dose activity, negative = inhibition, usual class: inhibitors | actives 1% (n = 390,000) | AID 588590, 2011
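Pol iota at 10 nM preincubated 15 min with compounds at room temperature; reaction started with fluorescent substrate, 50 nM final. Fluorescence read kinetically at 0 and 10 min; buffer-only wells as negative control.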
BLM inh: qHTS Assay for Inhibitors of Bloom's syndrome helicase (BLM); recombinant BLM DNA unwinding, fluorescence dequenching; Potency, µM (top dose mostly 56.1 µM), without a hit: at the highest dose activity change, negative = inhibition, most hits filed as inhibitors; actives 0.2% (n = 350,000); AID 2528, 2010;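 also: plate controls were vehicle for no effect and no enzyme for full effect; nearly all actives have a fitted effect of over 35% in size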
Target sequence (P54132 whole entry, looked up): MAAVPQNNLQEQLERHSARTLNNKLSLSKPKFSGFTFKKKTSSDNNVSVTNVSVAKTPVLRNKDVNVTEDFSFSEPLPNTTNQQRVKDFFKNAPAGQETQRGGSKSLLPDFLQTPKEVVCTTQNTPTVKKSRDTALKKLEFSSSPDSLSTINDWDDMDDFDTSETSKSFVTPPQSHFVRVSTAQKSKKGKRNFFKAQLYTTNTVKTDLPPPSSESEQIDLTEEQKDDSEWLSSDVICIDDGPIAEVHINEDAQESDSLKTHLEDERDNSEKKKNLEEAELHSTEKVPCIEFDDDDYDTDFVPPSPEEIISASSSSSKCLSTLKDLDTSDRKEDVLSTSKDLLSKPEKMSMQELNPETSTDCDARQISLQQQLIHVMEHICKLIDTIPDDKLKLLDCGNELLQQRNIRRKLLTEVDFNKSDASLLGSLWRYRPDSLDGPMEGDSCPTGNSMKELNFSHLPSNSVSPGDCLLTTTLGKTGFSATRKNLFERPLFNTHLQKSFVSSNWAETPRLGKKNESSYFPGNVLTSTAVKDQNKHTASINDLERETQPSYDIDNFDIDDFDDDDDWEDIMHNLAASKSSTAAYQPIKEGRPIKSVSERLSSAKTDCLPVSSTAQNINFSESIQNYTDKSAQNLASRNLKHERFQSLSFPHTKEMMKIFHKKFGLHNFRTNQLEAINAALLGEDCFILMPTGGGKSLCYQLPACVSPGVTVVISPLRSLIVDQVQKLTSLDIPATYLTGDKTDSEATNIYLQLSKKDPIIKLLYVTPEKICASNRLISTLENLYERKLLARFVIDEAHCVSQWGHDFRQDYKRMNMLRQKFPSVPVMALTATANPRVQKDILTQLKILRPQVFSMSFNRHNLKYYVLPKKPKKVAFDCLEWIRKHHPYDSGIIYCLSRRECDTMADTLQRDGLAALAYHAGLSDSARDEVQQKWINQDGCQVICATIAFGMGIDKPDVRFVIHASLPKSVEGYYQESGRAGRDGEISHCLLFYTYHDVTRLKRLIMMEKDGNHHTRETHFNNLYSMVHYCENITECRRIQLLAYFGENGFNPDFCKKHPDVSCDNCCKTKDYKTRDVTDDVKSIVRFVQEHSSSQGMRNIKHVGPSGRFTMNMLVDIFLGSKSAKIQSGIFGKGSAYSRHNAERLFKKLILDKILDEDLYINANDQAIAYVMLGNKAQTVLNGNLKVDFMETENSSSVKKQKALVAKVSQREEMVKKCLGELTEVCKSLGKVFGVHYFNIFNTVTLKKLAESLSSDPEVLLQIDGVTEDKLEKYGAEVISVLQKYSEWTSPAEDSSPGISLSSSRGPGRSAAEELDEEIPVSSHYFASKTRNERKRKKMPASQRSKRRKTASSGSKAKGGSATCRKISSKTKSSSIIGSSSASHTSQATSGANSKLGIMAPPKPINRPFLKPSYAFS
Tb PGK inh: qHTS Assay to Find Inhibitors of Phosphoglycerate Kinase | Potency, µM (highest dose often 57.5 µM), inactives show at the highest dose activity change, negative = inhibition, actives largely listed as inhibitors | actives 0.043% (n = 380,000) | AID 602233, 2012 | PGK/GAPDH coupled, Kinase-Glo luminescence, 60 min; also: % is scaled to controls: 0 for no effect and ±100 for the full control effect; nearly all actives have a fitted effect of over 60% in size
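Luminescent ATP detection (Kinase-Glo Plus) follows a 60-minute room-temperature incubation, with wells lacking PGK as controls. Buffer: 100 mM TEA (pH 7.6), 5 mM MgCl2, 0.01% Tween-20. Coupling enzyme GAPDH (100 nM final) supplies unstable 1,3-BPG in-well.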
G9a inh: qHTS Assay for Inhibitors of Histone Lysine Methyltransferase G9a | Histone-lysine N-methyltransferase EHMT2 (Homo sapiens), Q96KQ7 | G9a H3K9 monomethylation, AlphaScreen, 2 h | Potency, µM (highest dose often 102 µM), for inactives: top-dose activity, negative = inhibition, usual class: inhibitors | actives 8.8% (n = 350,000) | AID 504332, 2011; also: % is scaled to controls: 0 for no effect and ±100 for the full control effect; nearly all actives have a fitted effect of over 75% in size
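G9a (20 nM) preincubated 15 min RT with compounds, then 500 nM biotinylated H3K9 peptide and 20 uM SAM added; 2 h RT reaction. Monomethyl-H3K9 product detected by AlphaScreen with anti-H3K9me1 antibody, streptavidin donor and anti-rabbit IgG acceptor beads.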
HP1b chromo inh: HTS for Inhibitors of HP1-beta Chromodomain Interactions with Methylated Histone Tails | AlphaScreen HP1-beta / biotin-H3K9me3 peptide binding | Potency, µM (top dose mostly 114 µM), for the others: at the highest dose activity change, negative = inhibition, usual class: inhibitors | actives 0.56% (n = 390,000) | AID 540317, 2011; also: nearly all actives have a fitted effect of over 70% in size; inactives centre near 23
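AlphaScreen: HP1-beta (50 nM) preformed 30 min with biotin-H3(1-18)K9me3 peptide (50 nM) in PBS pH 7.4, 0.01% Tween-20. Compound added for 30 min at RT, then streptavidin donor/nickel chelate acceptor beads (10 ug/mL) for 30 min.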
JMJD2A Tudor: qHTS Assay for Inhibitors of JMJD2A-Tudor Domain; actives 4.4% (n = 390,000); AID 504339, 2011; Lysine-specific demethylase 4A (Homo sapiens), O75164; AlphaScreen JMJD2A-Tudor / H3K4me3 peptide binding; Potency, µM (titrated, usually from 114 µM), without a hit: at the top dose activity change, negative = inhibition, actives largely listed as inhibitors; also: % is scaled to controls: 0 for no effect and ±100 for the full control effect; nearly all actives have a fitted effect of over 50% in size
GLS inhibitor: qHTS for Inhibitors of Glutaminase (GLS); GLS enzymatic activity, qHTS titration; Potency, µM (highest dose often 45.5 µM), inactives show at the highest dose activity change, negative = inhibition, actives largely listed as inhibitors; AID 624170, 2012; actives 0.21% (n = 410,000); also: % is scaled to controls: 0 for no effect and ±100 for the full control effect
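Compounds were pin-transferred onto hKGA, after which L-glutamine (1 mM solution) and a detection mix of glutamate oxidase, HRP and Amplex Red were added. Initial and 30 min RT fluorescence reads were collected.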
Pin1 inh: qHTS Assay to Find Inhibitors of Pin1; Peptidyl-prolyl cis-trans isomerase NIMA-interacting 1 (Homo sapiens), Q13526; Pin1 FP peptide displacement, HiFluor488, 10 min; Potency, µM (doses to about 115 µM), for the others: at the highest dose activity, negative = inhibition, hits mostly inhibitors; actives 0.009% (n = 390,000); AID 504891, 2011; active = well fitted inhibition curve with a large enough effect in the polarisation, with a control signal flat, not every such curve was filed as active; inconclusive = small, poorly fitted or top-dose-only effect, or effect the other way, or a change in a side signal; inactive = no such curve, though single readings can be large or run the other way; the % refers to the polarisation; also: % is scaled to controls: 0 for no effect and ±100 for the full control effect
* = called active by the depositor; i = inactive; ? = inconclusive; / = not tested or not shown; [ ] = dose if it differs, or a comment. Unless noted, calls follow the shape of the dose curve; as a rule, active = well fitted curve in the direction sought with a large enough effect; inconclusive = small, poorly fitted or top-dose-only effect, or another doubt; inactive = no such curve, though single readings can be large; an effect the other way counts as inactive or inconclusive. Potency is read from the fitted curve at half-maximal effect.

Tb PGK inh,JMJD2A Tudor,GLS inhibitor,G9a inh,HP1b chromo inh,BLM inh,Pol iota inh,Pin1 inh,SMILES
-9%,?,20%,3%[0.501 µM],-14%,/,61%[activator],-4%,COc1cc(NCc2ccccc2)c2ncn(C(C)C)c2c1
-3%,-4%,0%,12%,20%,-2%,-1%,-11%,COc1cc(C(=O)NCCSc2ccc(F)cc2)cc(OC)c1OC
0%,-10%[11.4 µM],0%,?,26%,-8%,9%,-4%,COc1ccc(NC(=O)CN2CCN(S(=O)(=O)c3ccc(C(C)C)cc3)CC2)cc1OC
-10%,-24%,-5%,5%[0.501 µM],-5%,-18%,?,118%[activator],Cc1cccc(NC(=O)CSc2ncnc3sc(C)c(C)c23)n1
-10%,-26%,-10%,?,22%,-6%,24%,6%,CCOc1ccc(-c2cc(C(=O)Nc3ccc4c(c3)OCCO4)c3ccccc3n2)cc1
i,-4%,25%,22µM*,-18%,1%,0%,2%,CCOC(=O)CNc1nnc(SCC(=O)OCC)[nH]c1=O
i,-25%,-2%,-42%[59 µM],20%,2%,12%,-21%,CC(C)=CCCC(C)CN1CCC(N2CCC(C(=O)N3CCCC3)CC2)CC1 (configuration not stated)
i,-26%,-6%,/,2%,3%,11%,-13%,COc1cc(/C=N/N=C2/NC(=O)C(CC(=O)O)S2)ccc1OCc1cccc(Cl)c1 (configuration not stated)
1%,?,5%,/,-8%,-12%,13%,?,Cc1ccc(C)c(N2CCN(C(=O)C3CCCN(c4ncnc5c4nc4n5CCCCC4)C3)CC2)c1 (configuration not stated)
-7%,?,6%,40µM*,-2%,-8%,15%,9%,COc1ccc(NC2=CC(c3ccc(OC)c(OC)c3)N(c3ccc(OC)cc3)C2=O)cc1 (configuration not stated)
i,?,-1%,?,-15%,-8%,-14%,18%,O=C(c1ccc2c(c1)N(Cc1ccc(F)cc1)CCS2)N1CCN(c2ccccc2)CC1
i,?,-3%,?,?,-10%,-9%,0%,COc1ccc(NC(=O)COC(=O)CC2CC3CCC2C3)c([N+](=O)[O-])c1 (configuration not stated)
2%,-21%,32%[activator],?,-4%,4%,48%[activator],-2%,Cc1ccc(S(=O)(=O)Nc2cc3c(cc2N2CCOCC2)n(C)c(=O)n3C)c(C)c1
-1%,-21%,1%,?,11%,-4%,-8%,6%,COc1cccc(OCCNC(=O)CSc2ccc(C(F)(F)F)cc2[N+](=O)[O-])c1
i,-32%,-3%,?,17%,0%,25%,4%,COc1cc2cc(C(c3nnnn3Cc3ccc(F)cc3)N3CCCCCC3)c(=O)[nH]c2cc1OC (configuration not stated)

Records listed above that bear a hit mark in G9a inh.
Tb PGK inh,JMJD2A Tudor,GLS inhibitor,G9a inh,HP1b chromo inh,BLM inh,Pol iota inh,Pin1 inh,SMILES
i,-4%,25%,22µM*,-18%,1%,0%,2%,CCOC(=O)CNc1nnc(SCC(=O)OCC)[nH]c1=O
-7%,?,6%,40µM*,-2%,-8%,15%,9%,COc1ccc(NC2=CC(c3ccc(OC)c(OC)c3)N(c3ccc(OC)cc3)C2=O)cc1 (configuration not stated)

The listing continues:
Tb PGK inh,JMJD2A Tudor,GLS inhibitor,G9a inh,HP1b chromo inh,BLM inh,Pol iota inh,Pin1 inh,SMILES
8%,-10%[11.4 µM],-10%,4%,-15%,-3%,8%,-6%,CCc1nc(NCCc2ccccn2)c2nnn(Cc3ccccc3F)c2n1
7%,?,-1%,?,?,-12%,-6%[58.9 µM],-1%,O=C(c1cccc(F)c1)N1CCN(c2cc(N3CCCCC3)c(F)cc2[N+](=O)[O-])CC1
-7%,?,1%,40%[59 µM],13%,-9%,-5%,?,O=C1C2ON(c3ccc(Cl)cc3)C(c3ccco3)C2C(=O)N1c1ccccc1 (configuration not stated)
4%,-21%,0%,/,42%[activator],-2%,14%,-1%,C/C(CC(=O)Nc1ccc(Cl)cc1C(F)(F)F)=N\NC(=O)c1ccccn1
-8%,?,-6%,8.9µM*,?,-9%,24%,-2%,O=C(c1cccc([N+](=O)[O-])c1)N1c2nc(-c3ccco3)nn2C2(CCCCC2)[C@@H]2CCCC[C@@H]21
-1%,-30%,-6%,/,?,0%,15%,0%,Cc1nc(Cl)c(Cl)n1CCOc1ccccc1
-1%,-26%,-4%,?,27%,-15%,?,17%,CC(C)(C)C1CCc2c(sc(NC(=O)CSc3nnc(-c4ccccc4)o3)c2C#N)C1 (configuration not stated)
i,?,-10%,-47%[59 µM],-5%,-21%,2%,6%,CC(=O)c1cc(-c2ccccc2)n(CCC(=O)Nc2cc(C)cc(C)c2)c1C
4%,-8%,6%,10%[59 µM],54%[activator],3%,14%,-8%,COc1ccc(CCNC(=O)NC2CCCCC2)cc1
-11%,-5%,-3%,8.9µM*,-13%,-1%,2%,0%,Cc1ccc(C2=NNC(C(O)C(O)C(O)CO)S2)cc1 (configuration not stated)
-9%,-14%[11.4 µM],-5%,25µM*,-7%,-4%,34%[activator],3%,CN1CCN(S(=O)(=O)c2ccc(N3CCN(C(c4ccccc4)c4ccccc4)CC3)nc2)CC1
-9%,-44%,0%,-15%[59 µM],?,-5%,-21%,-4%,O=[N+]([O-])c1c(Nc2ccccc2O)ccc2nonc12
-2%,?,-28%,11µM*,?,-4%,?,-12%,CCSc1ncc(/C=N/Nc2ccccc2)n1C
2%,-34%,11%,50µM*,-12%,0%,55%[activator],5%,Cc1cccc(C(=O)NC(=S)N2CCc3ccccc3C2)c1
i,-8%,-3%,8.9µM*,32%,2%,10%,-12%,Cc1cc(OCCCn2ccnc2)cc(C(C)C)c1
i,-28%,3%,?,-1%,-6%,22%,-7%,CC(C)(C)C(=O)COC(=O)c1ccc2c(c1)C(=O)N(Cc1ccco1)C2=O
i,-18%[57.1 µM],8%,8.9µM*,-29%,-1%,-13%,-7%,COc1cc(N=C2C(=O)N3c4c(cccc42)C(C)=CC3(C)C)cc(OC)c1
-11%,?,-1%,29%[59 µM],3%,0%,-10%,10%,CN1C(=O)/C(=C/c2cccc(Cl)c2)Sc2ccc(C(=O)NCc3cccnc3)cc21
-5%,?,-2%,-49%[59 µM],6%,-2%,6%,9%,CN1C(=O)/C(=C\c2ccccc2F)Sc2ccc(C(=O)NC3CCN(Cc4ccccc4)CC3)cc21
-10%,?,-10%,?,-17%,-9%,48%[activator],0%,COc1ccc(CNC(=O)c2cc3c(s2)CN(Cc2ccccc2)C3)cc1
-6%,10%,18%,-4%,34%,-3%,-4%,-9%,COc1cccc(C2NC(=O)NC(C)=C2C(=O)Nc2cccc(C)c2C)c1 (configuration not stated)
-9%,-27%,-4%,35µM*,-2%,-7%,94%[activator],18%,CCOc1cc(/C=C/c2ccc3cccc([N+](=O)[O-])c3n2)ccc1OCC(=O)N(C)C
/,-26%,4%,2%,-1%,-10%,?,-1%,CCn1c(CNC(=O)COc2ccc(C(C)C)cc2)nnc1SCC(=O)Nc1ccccc1
-3%,-10%,-1%,?,?,-4%,-3%,0%,Cc1cc(C)c(C#N)c(SCC(=O)Nc2ccc(S(=O)(=O)Nc3ncccn3)cc2)n1
-8%,4%,-1%,/,46%[activator],-9%,6%,4%,C=CCNc1cnn(-c2ccccc2)c(=O)c1Cl
-3%,-1%,-11%,9%[59 µM],15%,-4%,7%,?,CCOC(=O)c1sc2ncn(CC(=O)Nc3cccc(C)c3)c(=O)c2c1C
-4%,-7%,-10%,5%,21%,-3%,-24%,-8%,Cn1c(SCC(=O)Nc2ccc(C(N)=O)cc2)nnc1-c1cccs1
-6%,?,23%,45µM*,?,-11%,183%[activator],-4%,CC1CCN(CCCNC(=O)c2ccc3c(=O)n(Cc4ccc(Cl)cc4)c(=S)[nH]c3c2)CC1
/,?,1%,?,-21%,-11%,0%,1%,COc1ccc(C(=O)c2sc(Nc3ccccc3F)nc2N)cc1
2%,-19%,5%,-45%[59 µM],8%,-1%,1%,0%,CCc1nnc(SC(CC)C(=O)Nc2cc(C)ccc2C)c2cc3occc3n12 (configuration not stated)
5%,?,?,?,48%[activator],-5%,?,3%,C/C(=N\Nc1nc(C(=O)O)cs1)c1ccccc1
4%,?,3%,?,?,-4%,7%,0%,Oc1ccc(-c2csc(NCc3ccco3)n2)cc1
3%,-29%,0%,?,15%,1%,-10%,9%,COc1ccc(-c2[nH]c(-c3ccccc3)nc2SCC(=O)Nc2ccc3c(c2)OCO3)cc1
i,-30%,6%,16µM*,?,-10%,22%,-2%,Cc1ccc(C(=O)c2c(NC(=O)c3ccncc3)sc3c2CCCC3)cc1
-2%,15%,2%,64%[activator][59 µM],50%[activator],-2%,24%,-1%,COc1ccc(-c2nnc(NC(=O)Cc3ccccc3)o2)cc1
-9%,-12%,8%,4%[12.7 µM],43%[activator],-8%,13%,-9%,Cc1nnc(SCC(=O)N2CCC(c3noc4ccc(F)cc34)CC2)s1
-6%,?,12%,?,?,-7%,3%,-2%,N#Cc1nc(COc2ccccc2)oc1N1CCCC1

Compound profiles, from the list above. Screens in order: Tb PGK inh	JMJD2A Tudor	GLS inhibitor	G9a inh	HP1b chromo inh	BLM inh	Pol iota inh	Pin1 inh
`Cc1ccc(C(=O)c2c(NC(=O)c3ccncc3)sc3c2CCCC3)cc1` as listed: i	-30%	6%	16µM*	?	-10%	22%	-2%
`Oc1ccc(-c2csc(NCc3ccco3)n2)cc1` as listed: 4%	?	3%	?	?	-4%	7%	0%
`COc1ccc(-c2nnc(NC(=O)Cc3ccccc3)o2)cc1` as listed: -2%	15%	2%	64%[activator][59 µM]	50%[activator]	-2%	24%	-1%

A portion of the library; the hit share may differ from the screen's.
